Sa ugtP lethal: growth inhibition of ugtP-null S. aureus, primary screen, RN4220 ugtP deletion, OD600. 16 h; some inactives read as strong as hits. growth inhibition, % (no concentration beside the values). 0.54% of 330,000 active;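 active means z-score under -3 and OD600 up to 0.15 on both plates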;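 further: plate controls were untreated wells for no effect and antibiotic for full effect; wells of about 80 µL received 100 nL stock; the first replicate is given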
BJeLR viability: MLPCN primary cell-based screen for lethality selective to Ras in HRASV12 cells | BJeLR (HRASV12) viability, CellTiter-Glo ATP luminescence, 48 h; reference of the scale not given here | inhibition, % (concentration not given with the values) | 0.17% of 300,000 active;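 active means replicate mean above 50%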;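 further: 50 nL library stock added to about 25 µL; numbers are from one replicate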
Sa RN4220 lethal: growth inhibition of S. aureus RN4220, primary screen, OD600 | 16 h | inhibition, % (test concentration not listed) | 0.33% of 330,000 active | AID 1259311, 2017;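 active means z-score of -3 or lower and OD600 up to 0.18 on both plates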;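 further: plate controls were untreated cells for no effect and reference antibiotic for full effect; stock transfer was 100 nL into about 80 µL; one replicate is shown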
Bead autofluor: compound fluorescence in toxin protease inhibitor counterscreen; compound autofluorescence counterscreen, microsphere flow cytometry; hits give high values; AID 624483; fluorescence intensity (concentration not given with the values); 3.1% of 360,000 active;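 active means at least 3 SD above the mean of all compounds, about 16000 in these data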;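 further: 100 nL of 1 mM stock went into each well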
Mtb hypoxia rep: PubChem AID 1159583. M. tuberculosis hypoxia-regulated fluorescent reporter, fluorescence. fluorescence inhibition, % (concentration not given with the values). 0.1% of 300,000 active;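 active means 35 to 45% if threefold the growth effect, above 45% if 1.5-fold the growth effect; inactive means the rest, general growth blockers included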;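 further: wells of about 50 µL received 100 nL stock; 0% = vehicle wells and 100% = reference inhibitor wells; whole bacteria with a GFP reporter of the hypoxia response; strong numbers were not always called active; many hits fall short of the cut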
PrP 5UTR inh: inhibition of PrP 5' UTR reporter expression; cell-based PrP 5' UTR mRNA reporter, plate reader; inhibition, % (no concentration beside the values); 0.35% of 340,000 active;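 active means every replicate at 50% or more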;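 further: 0 = median of the neutral control wells; tested in H4 reporter cells; numbers are from one replicate; inactives centre near -14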
Mtb hypoxia rep growth: second read-out of Mtb hypoxia rep, no call of its own (marks repeat the call); growth inhibition, %; measured here: M. tuberculosis growth (absorbance);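 0% = vehicle and 100% = reference antibiotic; read after six days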
Starred values were filed as active, the others as inactive; · = no result given. This is a random part of the collection, and some 4% of all compounds hit somewhere here.

| Molecule | Sa ugtP lethal | BJeLR viability | Sa RN4220 lethal | Bead autofluor | Mtb hypoxia rep | Mtb hypoxia rep growth | PrP 5UTR inh |
| --- | --- | --- | --- | --- | --- | --- | --- |
| O=C(NNS(=O)(=O)c1ccc(Br)cc1)NC1CCCCC1 | 5 | 1 | 5.4 | 1990 | 11 | -1 | -22 |
| CC1(C)Cc2c(sc3nc(NCCN4CCOCC4)n4ncnc4c23)CO1 | -4 | 6 | -1.1 | 6265 | · | · | -3 |
| O=C(CN1CCC(Cc2ccccc2)CC1)Nc1ccc2c(c1)OCCO2 | 8 | -3 | -0.2 | · | 5 | 4 | · |
| O=C(CCC(=O)N1CCOc2ccccc21)N1CCN(c2ccccc2)CC1 | 7 | -2 | -8.3 | 4275 | 6 | 1 | 35 |
| Cc1cc(C)n(CCOc2nonc2N)n1 | 4 | -9 | 5.6 | 8067 | 7 | 7 | -5 |
| CC(C)NCc1nnc(-c2ccc(Cl)cc2)o1 | 5 | 3 | 4.2 | 3249 | 19 | 17 | -14 |
| COCC(=O)Nc1nc(-c2ccc(-c3ccccc3)cc2)cs1 | 9 | 10 | -3.9 | 3396 | 8 | -7 | -80 |
| Cn1c(N)c(C(=O)COC(=O)c2cccc(S(=O)(=O)N3CCOCC3)c2)c(=O)n(C)c1=O | 3 | · | 5.0 | 3051 | 4 | 3 | -13 |
| N#Cc1c(NC(=O)CCC(=O)O)sc2c1CCCCC2 | -8 | 11 | 0.7 | 4337 | -11 | 8 | 13 |
| O=C(Nc1ccc(Cl)cc1)Nn1cnc2ccccc2c1=O | 3 | 6 | 0.7 | 4233 | 16 | 7 | -12 |
| CC(C)C[C@H](NC(=O)c1nc[nH]c1C(=O)N1CCC(C)CC1)C(=O)OCc1ccccc1 | · | 4 | · | 3736 | · | · | -10 |
| CC(C)C(=O)Nc1cccnc1 | -7 | 1 | 0.9 | 3654 | -9 | -10 | -15 |
| Nc1ccc(C(=O)OCC(=O)Nc2cc([N+](=O)[O-])ccc2F)cc1 | -12 | -8 | 0.7 | 1938 | 4 | 4 | -26 |
| COC(=O)c1cccc(NC(=O)C23CC4CC(C2)CC(n2cncn2)(C4)C3)c1 | -1 | -1 | 3.4 | 3699 | 11 | 15 | -24 |
| CCn1c(SCC(=O)N2CCC(C)CC2)nc2c(c1=O)SC(C)C2 (configuration not stated) | 5 | -6 | -1.4 | 5726 | 4 | 2 | -25 |
| CC(=O)NC(=Cc1ccc2c(c1)OCO2)C(=O)NCCCO | 4 | · | 4.7 | · | 5 | 10 | · |
| O=C(NCCc1c[nH]c2ccccc12)C(=O)NCC1OCCCN1S(=O)(=O)c1cccs1 (configuration not stated) | -2 | -5 | 3.6 | 2263 | -1 | 8 | -27 |
| COCC(=O)O[C@]1(CCN(C)CCCc2nc3ccccc3[nH]2)CCc2cc(F)ccc2C1C(C)C (some centres not stated) | -20 | · | -1.2 | · | 12 | 20 | · |
| Cc1ccc(N/C(N)=N/c2nc(C)cc(N3CCCCC3)n2)c(C)c1 | -4 | 12 | 4.7 | 4042 | · | · | -8 |
| O=C(COC(=O)Cn1cnc2ccccc2c1=O)Nc1ccc(Cl)cc1 | 8 | · | 4.7 | 2460 | -2 | 10 | -26 |
| CCCOP(=O)(O)c1c([N+](=O)[O-])cc(C(F)(F)F)cc1[N+](=O)[O-] (tested in a mixture with another compound) | 1 | -3 | -0.1 | 10873 | 14 | 4 | -14 |
| COc1ccc(N(CC(=O)N/N=C/c2ccc(-c3ccc([N+](=O)[O-])cc3)o2)S(=O)(=O)c2ccc(C)cc2)cc1Cl | · | 0 | · | 2649 | · | · | -15 |
| COc1ccccc1-c1nc2s/c(=C\c3cccs3)c(=O)n2n1 | · | 10 | · | 2552 | · | · | -34 |
| CCCC(O)c1cc2cc(OC)c(OC)cc2c(=O)o1 (configuration not stated) | -1 | · | 3.0 | · | 21 | 13 | · |
| CCOC(=O)c1cnn(-c2ccccc2)c1NC(=O)CCl | 5 | -4 | 4.1 | 2515 | 2 | 8 | -17 |
| Cc1cc(NS(=O)(=O)c2ccc(NC(=S)NC(=O)/C=C/c3ccccc3)cc2)no1 | 19 | -1 | 13 | 4804 | 9 | 15 | -17 |
| COCCOC(=O)C1=C(C)NC(=O)NC1C1CC=CCC1 (configuration not stated) | -1 | -6 | 0.8 | 9519 | 7 | 4 | -25 |
| COc1cc([N+](=O)[O-])ccc1-c1ccc(/C=N/NC(=O)OC(C)(C)C)o1 | · | -3 | · | 4184 | · | · | -21 |
| CC(C)C(=O)Nc1c2c(nc3c1CCC3)CCCC2 | 3 | -11 | -2.6 | 2514 | 10 | 8 | -22 |
| Cc1ccccc1-c1ccc(=O)n(CC(=O)Nc2ccc(C(=O)N3CCCC3)cc2)n1 | 6 | 3 | -1.3 | 6630 | 8 | 9 | -21 |
| O=C(CCN1C(=O)COc2ccccc21)NCCN1CCOCC1 | 1 | 2 | 0.8 | 9031 | 9 | 17 | -13 |
| Cc1cc(OCC(=O)O/N=C(\N)Cc2cccs2)ccc1Br | · | -1 | · | 11164 | · | · | -3 |
| O=C(Nc1ccccc1)C(=O)c1cn(CC(=O)N2CCCCC2)c2ccccc12 | 14 | 1 | 0.3 | 2620 | 11 | 3 | -26 |
| COc1ccccc1CNc1ccc(C(=O)O)cc1 | 7 | -1 | 1.8 | 4269 | · | · | -15 |
| CC1CCC/C(=N\NC(=O)c2ccncc2)C1 (configuration not stated) | · | -5 | · | 2066 | · | · | -4 |
| CCc1ccc(OCC(=O)NCC(c2ccc(Cl)cc2)N2CCCCC2)cc1 (configuration not stated) | 0 | 8 | 0.4 | 3957 | 7 | 3 | 1 |
| COc1ccccc1CNC(=O)COC(=O)c1cc(C)nc2ccccc12 | 3 | · | 0.2 | 7505 | 4 | 7 | -19 |
| CCN(CC)C(=O)CSc1ccc(C(F)(F)F)cc1[N+](=O)[O-] | -3 | -3 | 3.3 | 2044 | 7 | 7 | -26 |
| CC(C)c1ccc(N(CC(=O)NCc2ccc(F)cc2)C(=O)c2snc(C(N)=O)c2N)cc1 | -1 | -2 | 0.1 | 3397 | -1 | -4 | -2 |
| NC1(C(=O)O)CCCc2ccc(N(CCCl)CCCl)cc21 (configuration not stated) | -2 | · | 5.8 | 3896 | 22 | 8 | -86 |

Single records, as listed above. Values in the order: Sa ugtP lethal	BJeLR viability	Sa RN4220 lethal	Bead autofluor	Mtb hypoxia rep	Mtb hypoxia rep growth	PrP 5UTR inh
Record of O=C(NNS(=O)(=O)c1ccc(Br)cc1)NC1CCCCC1 → 5	1	5.4	1990	11	-1	-22
Record of O=C(NCCc1c[nH]c2ccccc12)C(=O)NCC1OCCCN1S(=O)(=O)c1cccs1 (configuration not stated) → -2	-5	3.6	2263	-1	8	-27
Record of Nc1ccc(C(=O)OCC(=O)Nc2cc([N+](=O)[O-])ccc2F)cc1 → -12	-8	0.7	1938	4	4	-26
Record of Cc1ccc(N/C(N)=N/c2nc(C)cc(N3CCCCC3)n2)c(C)c1 → -4	12	4.7	4042	·	·	-8

Later entries.
| Molecule | Sa ugtP lethal | BJeLR viability | Sa RN4220 lethal | Bead autofluor | Mtb hypoxia rep | Mtb hypoxia rep growth | PrP 5UTR inh |
| --- | --- | --- | --- | --- | --- | --- | --- |
| CCN1CCN(c2ccc(NC(=O)COc3ccccc3Cl)cc2)CC1 | 20 | 1 | 2.2 | 8806 | 9 | 8 | -45 |
| Cc1ccc(NC(=O)CSc2nc3c([nH]c4ccccc43)c(=O)n2C)cc1 | 8 | -4 | 6.7 | 5742 | 4 | -1 | -27 |
| O=C(Nc1nonc1NC(=O)C1CCCCC1)C1CCCCC1 | -11 | -3 | 16 | 3629 | 7 | 6 | -16 |
| COc1ccccc1/C=C1\SC(=S)N(C(C(=O)O)c2ccccc2)C1=O (configuration not stated) | 7 | 7 | 8.2 | 3509 | 12 | 7 | -25 |
| CC(CC(=O)NC(C)(C)C)=NNC(=O)COc1ccc(C)cc1Br | -4 | · | 2.0 | · | -3 | 5 | · |
| CN(C)c1ccc(/C=N/Nc2ccc(-n3ccnc3)nn2)cc1 | · | -4 | · | 2773 | · | · | -40 |
| CC/C(C)=N/Nc1nc2c(c(=O)[nH]c(=O)n2C)n1CCc1ccccc1 | · | 4 | · | 4638 | · | · | 1 |
| COc1ccc(C2C(C(=O)Nc3cc(OC)c(OC)c(OC)c3)c3ccccc3C(=O)N2C)cc1 (configuration not stated) | 1 | 39 | 13 | 4526 | 14 | 4 | -23 |
| O=C(N/N=C\C=C\c1ccco1)C1COc2ccccc2O1 (configuration not stated) | · | -5 | · | 3177 | · | · | -11 |
| Cc1ccc(S(=O)(=O)Oc2ccccc2C=NNC(N)=S)cc1 | -2 | · | 6.9 | · | 14 | 12 | · |
| CC(C)NC(=O)C1(O)c2ccccc2NC(=O)N1c1ccc(Cl)c(Cl)c1 (configuration not stated) | -5 | 4 | 1.1 | 4513 | 5 | -1 | -19 |
| O=C(O)c1cccc(Cn2c(Cl)c(C=NNC(=O)c3ccccc3Cl)sc2=O)c1 | 3 | · | -9.4 | · | 3 | 5 | · |
| CC(C)C[C@H](N)c1cn([C@@H](Cc2cc3ccccc3[nH]2)C(=O)N2CCNCC2)nn1 | · | -17 | · | 4798 | · | · | -32 |
| COc1ccc(N2CCN(C(c3ccco3)c3sc4nc(C)nn4c3O)CC2)cc1 (configuration not stated) | 8 | -1 | 3.6 | 2307 | 2 | 15 | -6 |
| COc1ccc(OC)c(NC(=O)c2cccc(NC(=O)c3ccccc3)c2)c1 | -3 | 8 | -1.7 | 3617 | 7 | 5 | -11 |
| CN(CC(=O)Nc1cccc(F)c1)C(=O)c1ccncc1 | -3 | -3 | 0.1 | 5613 | 11 | 0 | -11 |
| CCOC(=O)N1CCN(Cc2cc(=O)oc3ccc4ccccc4c23)CC1 | -11 | 3 | -4.8 | 4411 | · | · | -34 |
| COc1cc(/C=N/NC(=O)CNC(=O)c2ccncc2)ccc1O | · | 5 | · | 6785 | · | · | -6 |
| Cc1nnc(NC(=O)CSc2nnc(-c3ccco3)o2)s1 | 18 | -3 | 7.5 | 4011 | -1 | -3 | -14 |
| COc1cc(/C=C2\SC(=Nc3ccccc3OC)NC2=O)ccc1O | 0 | -4 | 2.6 | 3913 | 2 | 8 | -7 |
| COc1ccc(C=NNC(=O)C2c3ccccc3-c3ccccc32)cc1 | -16 | · | -1.4 | · | -6 | 11 | · |
| CCCCN(C(=O)C1CC(=O)N(c2ccc3c(c2)OCCO3)C1)c1c(N)n(CCC)c(=O)[nH]c1=O (configuration not stated) | 0 | · | -1.7 | 8494 | 2 | 6 | -22 |
| COc1ccc(OC)c(NC(=O)Cn2c(CCC(=O)O)ccc2-c2ccc(C)cc2)c1 | 0 | -8 | 23 | 4223 | 5 | 7 | 13 |
| O=C(OCn1nnc2ccccc2c1=O)c1cccc(S(=O)(=O)N2CCOCC2)c1 | 3 | · | 0.8 | 3829 | 2 | 0 | -49 |
| COc1cccc(N(CC(=O)Nc2ccccc2C)S(C)(=O)=O)c1 | 4 | 0 | 3.9 | 8000 | 0 | 0 | -16 |
| O=C1C=C(NC2CC2)C2(CCCCC2)O1 | 0 | -7 | 1.8 | 2802 | -1 | 9 | -17 |
| CCN(CC)C(=O)CCCSc1nnc(Nc2ccccc2F)s1 | -2 | 1 | 3.0 | 4066 | 2 | 5 | -82 |
| COc1ccc(-c2cc(C(F)(F)F)nc(S(C)(=O)=O)n2)cc1OC | -6 | 16 | -0.7 | 3239 | 1 | -13 | -3 |
| COc1ccccc1C(=O)Nc1ccnn1C1CCN(CCCc2ccccc2)CC1 | 9 | 9 | 1.3 | 6105 | 7 | -1 | 2 |
| Cc1ccc(C(=O)N2C(=O)c3cccc(N)c3C2=O)o1 | 10 | -3 | 7.1 | 4123 | 1 | -3 | -14 |
| COc1ccc(C)cc1N(CC(=O)O)S(=O)(=O)c1ccc(C)cc1 | 3 | 2 | 4.6 | 4030 | · | · | 4 |
| CC(C)n1c(SCC(=O)Nc2ccccc2N2CCOCC2)nc2c1c(=O)n(C)c(=O)n2C | 1 | 3 | 2.5 | 2915 | · | · | -11 |
| CCSc1nc2c(c(=O)[nH]c(=O)n2C)n1C | 9 | -2 | 6.8 | 3206 | 4 | 5 | -17 |
| CN(C)c1ccc(C(CC(=O)O)NC(=O)c2ccc(Cl)cc2)cc1 (configuration not stated) | -2 | 3 | -3.1 | 4926 | · | · | -19 |
| Cc1ccc(C(=O)NC(=S)N2CCN(C(=O)OC(C)(C)C)CC2)cc1Br | 3 | 5 | 4.4 | 5979 | 13 | 0 | -33 |
| Cc1ccccc1CSc1nnc(C)c(=O)n1N | 5 | -7 | 2.0 | 3910 | 19 | 0 | -1 |

Bioassay records as filed in PubChem.
